H5N1 CPE – MDCK cell protection from H5N1 avian flu; AID 740; cytopathic effect, luminescence, 72 h; active compounds read high; no value below 0 was filed and about half of the inactive calls have no number; reference of the scale not given here; inhibition, % at 50 µM; 96,000 compounds, 0.07% hits; in the data active means inhibition above about 25%
* = called active by the depositor; i = inactive. This is a subset, so the mix of outcomes need not match the whole.

canonical_smiles | H5N1 CPE
CCOc1cccc2sc(NC(=O)c3ccc(Br)s3)nc12 | i
Cc1cc(C)n(-c2ccc(C(=O)Nc3sccc3C(N)=O)cc2)n1 | i
Cc1cc(C=O)c(C)n1-c1cc(C(F)(F)F)ccc1N1CCOCC1 | i
Cc1ccc(-c2n[nH]c(=O)c3ccccc23)cc1N | 0.3
CC(Sc1nncn1C)C(=O)Nc1nnc(C(C)C)s1 (configuration not stated) | 1.8
CCCCN(C(=O)CNC(=O)c1ccco1)C(C(=O)NC1CCCC1)c1ccc(OC)cc1 (configuration not stated) | i
CN(c1ccccc1)c1nc2ccsc2c(=O)s1 | 0.1
CC(C)(C)c1ccc(C(=O)CS(=O)(=O)c2ccccc2)cc1 | 7.9
CN(C(=O)C1CCOC1)c1nnc(-c2cccnc2)s1 (configuration not stated) | i
COCCNC(=O)c1ccccc1-c1nc(-c2ccccc2Cl)no1 | i
Cc1ccccc1CSc1nnc(C)c(=O)[nH]1 | i
CNc1ncc(C(=O)C(C)(C)C)s1 | 0.6
CCn1ccc(C(=O)Nc2ccc(S(=O)(=O)Nc3ccccc3OC)cc2)n1 | 0.6
O=C(NCc1ccccc1)c1cc(=O)nc2sc(-c3ccccc3)nn12 | 2.7
Cn1c(=O)c2c(nc(CN3CCN(C(=O)c4ccco4)CC3)n2Cc2cccc(Cl)c2)n(C)c1=O | 6.7
CN(C)Cc1c(C#N)c2ccccc2n1C | i
CC(C)(C)NC(=O)CN(Cc1cccs1)C(=O)C1COc2ccccc2O1 (configuration not stated) | i
CS(=O)(=O)N1CCC(C(=O)NCCC2=CCCCC2)CC1 | 0.7
Cc1ccc2[nH]c(=O)c(CN(CCN3CCOCC3)C(=O)Nc3ccccc3F)cc2c1 | i
CCCc1cc(-c2n[nH]c(C)c2-c2ccc(C(=O)OCC)o2)c(O)cc1O | i
O=C(Nc1cccn2ncnc12)C(Cl)Cl | i
CCOc1ccccc1-c1nc(-c2ccc(NC(=O)Cc3ccc(OC)cc3)cc2)no1 | i
O=C(NCc1ccc(F)cc1)c1cc(S(=O)(=O)N2CCOCC2)ccc1F | 1.3
CCOc1ccc(NC(=O)CSc2nnc(CCNC(=O)c3ccc(OC)cc3)n2C)cc1 | i
CC(C)(C)CC(=O)NC(=S)NCCc1ccccc1 | i
Cc1c(C=O)c2ccccn2c1C(=O)c1ccncc1 | 0.9
COc1ccc(CN2CCCCC2C)cc1OC (configuration not stated) | i
O=C(NCc1ccco1)c1ccccc1Nc1ccc(F)cc1 | i
CN(C)c1ccc(/C=c2\sc3n(c2=O)CCCN=3)cc1 | i
Cc1nc2scc(-c3cccs3)c2c(=O)n1CC(=O)O | i
CC(=O)Nc1c(OC(C)=O)ccc2c(C)cc(=O)oc12 | i
COc1ccc(Cl)cc1NC(=S)NCc1ccco1 | i
O=C(NC1CCCCC1)c1ccc(COCC(F)(F)F)o1 | i
CCN(CC)C(=O)Cn1c(=O)n(-c2ccccc2)c(=O)n1CC(=O)N(CC)CC | 1.9
O=C(NC1=NCCS1)c1nc(-c2ccccc2)n(-c2ccccc2)n1 | 1.4
O=S(=O)(c1cccc(-c2cn3cc(Cl)ccc3n2)c1)N1CCOCC1 | 4.2
CCN1CCN(Cc2ccc(NC(=O)Nc3ccccc3OC)cc2)CC1 | i
Cc1cccc(OCCn2c(-c3ccco3)nc3ccccc32)c1 | i
Cc1c(N=C2Nc3cccc4cccc2c34)c(=O)n(-c2ccccc2)n1C | i
O=C(CSc1nnc(-c2ccco2)n1CC1CCCO1)NC1CCCC1 (configuration not stated) | 0.0

Reformatted field by field: 4 of the compounds above.
> CCN(CC)C(=O)Cn1c(=O)n(-c2ccccc2)c(=O)n1CC(=O)N(CC)CC
- H5N1 CPE: 1.9
> Cc1cccc(OCCn2c(-c3ccco3)nc3ccccc32)c1
- H5N1 CPE: i
> COc1ccc(Cl)cc1NC(=S)NCc1ccco1
- H5N1 CPE: i
> O=S(=O)(c1cccc(-c2cn3cc(Cl)ccc3n2)c1)N1CCOCC1
- H5N1 CPE: 4.2

Going on with the list.
canonical_smiles | H5N1 CPE
CCOc1cc(C(C#N)N2CCOCC2)ccc1OC (configuration not stated) | i
C=C(C)CSc1ncc(-c2cccc(C(F)(F)F)c2)cn1 | i
O/N=C/CCn1c(=S)sc2ccccc21 | 0.6
c1ccc(-n2cnnc2SCc2cn3ccsc3n2)cc1 | 1.9
COc1ccccc1S(=O)(=O)Cc1ccc(C(=O)NCCN2CCCCCC2)o1 | 1.2
COc1ccc(C)cc1NC(=O)CCCN1C(=O)CCC1=O | i
COc1ccc2c(c1)CCCN2C(N)=O | i
COc1cc(OC)c(C2CC(=O)N3CN(C)CSC3=C2C#N)cc1OC (configuration not stated) | 0.1
O=C(Nc1ccc(S(=O)(=O)N2CCCCCC2)cc1)c1ccco1 | i
O=C(NC1CCCc2ccccc21)C1CCN(c2c3c(nc4ncnn24)CCC3)CC1 (configuration not stated) | i
CCCOc1nc2c(c(=O)n(C)c(=O)n2C)n1Cc1cccc2ccccc12 | 2.6
CCOC(=O)CN(C)Cc1c[nH]c2ccccc12 | i
COc1cccc(C(=O)N2CCN(Cc3cccc(F)c3)CC2)c1 | i
O=C1NC(c2ccccc2)C(C(=O)c2cccs2)C(O)(C(F)(F)F)N1 (configuration not stated) | i
COc1ccc(CNC(=O)C2CCCN(c3nc4ccccc4o3)C2)c(OC)c1 (configuration not stated) | i
O=C(Nc1ccc(N2CCOCC2)cc1)c1ccc(Cl)nc1 | 1.8
CCOC(=O)CC(=O)Nc1nnc(CC(C)C)s1 | i
CCOC(=O)CC1=C(C(=O)OCC)C2(C(=O)N1CC(=O)OC)C(C#N)=C(N)Oc1ccccc12 (configuration not stated) | i
CCOCCCNC(=O)c1cn(CC(C)C)c(=O)c2cc(OC)c(OC)cc12 | 1.0
O=c1[nH]nc2n1CCCCC2 | i

For reference, some entries already given.
canonical_smiles | H5N1 CPE
O=C1NC(c2ccccc2)C(C(=O)c2cccs2)C(O)(C(F)(F)F)N1 (configuration not stated) | i
COc1ccc(CNC(=O)C2CCCN(c3nc4ccccc4o3)C2)c(OC)c1 (configuration not stated) | i
O=C(Nc1ccc(N2CCOCC2)cc1)c1ccc(Cl)nc1 | 1.8
CCOC(=O)CC(=O)Nc1nnc(CC(C)C)s1 | i
CCOC(=O)CC1=C(C(=O)OCC)C2(C(=O)N1CC(=O)OC)C(C#N)=C(N)Oc1ccccc12 (configuration not stated) | i
CCOCCCNC(=O)c1cn(CC(C)C)c(=O)c2cc(OC)c(OC)cc12 | 1.0
O=c1[nH]nc2n1CCCCC2 | i

Continuation:
canonical_smiles | H5N1 CPE
COC(=O)C(C)N(C#N)c1nc(C)nc(C)n1 (configuration not stated) | 0.4
Cc1nc2ccc(NC(=O)N3CCOCC3)cc2s1 | 1.3
O=[N+]([O-])c1ccc(O)c(NC(=S)Nc2ccccc2)c1 | i
COc1ccc(OC)c2[nH]c(=O)c(CCNC(=O)CC(C)C)cc12 | i
COc1cc(-c2nnc(SCc3ccccc3Cl)o2)cc(OC)c1OC | 2.1
Cc1nc(C)n(CC(O)COc2ccc3c(c2)CCC3)n1 (configuration not stated) | i
Cc1cc(NC(NC(=O)c2ccco2)(C(F)(F)F)C(F)(F)F)no1 | 1.4
O=C(N/N=C\c1ccc(-c2ccc(Cl)c(Cl)c2)o1)C(=O)N1CCCC1 | i
Cc1noc(NS(=O)(=O)c2ccc(N/C=C\C(=O)c3ccc4c(c3)OCO4)cc2)c1C | 1.6
CCOC(=O)Cc1csc(NC(=O)Cc2cccs2)n1 | 0.2
CCOc1ccc(-c2noc(CCC(N)=O)n2)cc1OCC | i
Cc1ccc(S(=O)(=O)NCC(=O)NC2CCCC2)cc1 | 0.5
COC(=O)c1cccc(S(=O)(=O)N2CCC(NC(=O)Nc3cccc(F)c3)CC2)c1 | 0.2
CCOC(=O)NC1(NC2CCCCC2)Oc2ccccc2O1 | i
Cc1nc(SCC(=O)c2ccc(Cl)s2)c2oc3ccccc3c2n1 | i
COc1ccc(-c2csc(C3=C(O)CN(Cc4ccc(Cl)cc4)C3=N)n2)cc1OC | i
Cc1nnc(-c2cccc(Br)c2)c2cn(-c3ccccc3)nc12 | 1.2
COC(=O)CCC(=O)Nc1ccc(Cl)c(Cl)c1 | i
COc1ccc(N=C(C)C2=C(O)COC2=O)cc1 | i
CCn1ncc(/C=C/C(=O)Nc2c(C)nn(Cc3ccc(Cl)cc3Cl)c2C)c1C | 2.1
COc1ccc(CNC(=O)C2CCCN2C(=O)NC2CCCCC2)cc1 (configuration not stated) | i
COC(=O)COc1ccc(S(=O)(=O)NCCC2=CCCCC2)cc1C | i
Cc1cccc2cc(CN(CC3CCCO3)C(=O)c3ccco3)c(=O)[nH]c12 (configuration not stated) | i
COc1ccccc1C(=O)N/C(=C/c1ccc(Br)cc1)C(=O)NCCO | 0.6
C=CCn1c(-c2ccc(OC)cc2)csc1=Nc1c(C)n(C)n(-c2ccccc2)c1=O | i
CCc1cc(=O)oc2cc(C)cc(OC(=O)c3ccco3)c12 | i
Cc1ccc(Cl)cc1NC(=O)CC(O)(C(F)(F)F)C(F)(F)F | 13
CCN(CC)S(=O)(=O)c1ccc(/C(O)=C(\C#N)c2nc3ccccc3n2C)cc1 | 1.3
Cc1cc(C(C)(C)C)cc(S(=O)(=O)NCCO)c1C | 0.3
COc1cccc(N2C(=O)CC(c3c[nH]c4ccccc34)C2=O)c1 (configuration not stated) | 1.4
Cc1ccc(NC(=O)CCn2cccc2)cc1C | i
CSc1nsc(SCC(=O)Nc2ccc(Br)cn2)n1 | 0.8
O=C(Nc1cccn(Cc2ccc(F)cc2)c1=O)NC1CCCCC1 | i
COc1ccc(C2C(C(C)=O)=C(O)C(=O)N2c2cccnc2)cc1OC (configuration not stated) | 1.0
COc1ccc(C2CC(=O)C(C=NCCCN3CCOCC3)=C(O)C2)cc1 (configuration not stated) | 0.6
CCCn1nnc(NC(=O)c2ccc(F)cc2)n1 | i
O=C(CN1CCOCCOCCOCC1)Nc1ccccc1 | 0.1
CC1CN(S(=O)(=O)c2cccc(-c3cn4ccccc4n3)c2)CC(C)O1 (configuration not stated) | 2.5
CCC(=NCCCN1CCOCC1)c1c(O)n(Cc2ccccc2)c(=O)[nH]c1=O | 1.3
CC/C(=C1/C(=O)CC(C)(C)C(C(=O)OC)C1=O)N1CCCC1 (configuration not stated) | 0.7
Cc1ccc(C(=O)Nc2ccc3c(c2)OCO3)cc1S(=O)(=O)N1CCCCC1 | 1.3
CC1(C(=O)O)CCC(C(=O)Nc2ccccc2O)C1(C)C (configuration not stated) | i
Cc1cc([N+](=O)[O-])nn1CC(=O)NNC(=S)Nc1ccc(F)cc1 | i
Cc1ccc(O)c(C2=NNC(O)(C(F)(F)F)C2)c1 (configuration not stated) | 0.9
COC(=O)c1ccc(Nc2cc(C)nc3ncnn23)cc1 | 0.1
CCOc1ccc(OCC)c(S(=O)(=O)N2CCCCC2C)c1 (configuration not stated) | 6.4
C[C@H](NS(=O)(=O)c1ccccc1F)C(=O)OCC(=O)N1CCc2ccccc21 | i
Cn1cccc1Cc1nnc(SCC(=O)N2CCOCC2)n1CCc1ccccc1 | i
Cc1cccc(Cn2c(CN3CCN(Cc4ccccc4)CC3)nc3c2c(=O)[nH]c(=O)n3C)c1 | 0.2
COc1cc(NC(=O)C2CCCCC2)c(OC)cc1NC(=O)c1ccco1 | 1.4

Further results follow.
canonical_smiles | H5N1 CPE
Cc1cccc2cc(COC(=O)C3CCCCC3)c(=O)[nH]c12 | i
CCCCNC(=O)NC1(C(F)(F)F)Oc2ccccc2O1 | i
COc1cccc(C2(O)CCN(C(=O)c3cccs3)CC2)c1 | i
Cc1ccc(C(O)P(=O)(OC2CCCCC2)OC2CCCCC2)cc1 (configuration not stated) | i
c1ccc(-c2nnc(OCCN3CCOCC3)c3ccccc23)cc1 | i
COC(=O)c1ccc(C(=O)OC)c(NC(=O)COC(=O)C23CC4CC(CC(O)(C4)C2)C3)c1 | 0.2
CCN(CC)S(=O)(=O)c1ccc(-c2nnc(SCC(=O)Nc3ccc(OC)c(OC)c3)o2)cc1 | 2.7
O=C(Nn1cnnc1)c1cc2c(s1)CCCCC2 | i
COc1ccc(OC)c(-c2cc(C(=O)Nc3c(C)n(C)n(-c4ccccc4)c3=O)no2)c1 | i
CCC(C(=O)Nc1cc(C)on1)c1ccccc1 (configuration not stated) | 1.0
Cc1nn2c(nc1=O)SCC(c1ccccc1)=N2 | 0.7
CCOC(=O)c1[nH]nc(-c2c(O)cc(C)cc2O)c1-c1csc(C)n1 | i
Cc1ccc(/C=N\NC(=O)c2csnn2)cc1 | 0.2
Cn1c(Cn2c(=O)sc3ccccc32)nnc1SCC(=O)NCc1ccc2c(c1)OCO2 | 0.5
CS(=O)(=O)N(Cc1ccc(C(=O)NCCSCc2ccco2)cc1)c1ccccc1 | i
O=C(c1cnc(N2CCN(c3ncccn3)CC2)c2ccccc12)N1CCN(c2ccccn2)CC1 | 0.9
c1ccc(C2COC(c3cccs3)=N2)cc1 (configuration not stated) | i
CC1=C(/C=C/C(=O)O)C(C)(C)CCC1 | 0.3
CC1(C)C(=O)OC(c2ccco2)C(C)(C)C1=O (configuration not stated) | 0.5
O=S(=O)(c1ccc(N2CC=C(c3ccccc3)CC2)nc1)N1CCCC1 | i
COc1cccc(-c2cc(C(=O)Nc3cc(C)nn3-c3ccccc3)no2)c1 | 0.6
COc1cccc(C2=CC(c3ccccc3)n3ncnc3N2)c1 (configuration not stated) | 0.5
Cc1sc2nc(SCC(=O)C(C)(C)C)n(Cc3ccco3)c(=O)c2c1C | 2.1
COc1ccc(C(=O)N2CCCN(C)CC2)cc1S(=O)(=O)N1CCCc2ccccc21 | 1.1
CCOc1ccc(OCC)c(NC(=O)C2CCN(S(=O)(=O)c3cccnc3)CC2)c1 | i
O=C(O)c1c(F)c(F)c(F)c(F)c1-c1ccc(Cl)cc1 | i
O=C(OCC(=O)N1CCCc2ccccc21)C1CCN(S(=O)(=O)c2cccs2)CC1 | i
CC(=O)c1c(C)[nH]c(C(=O)CSc2nnc(-c3ccccc3)o2)c1C | 2.2

Screening results from PubChem.
